Bioassay records from PubChem.
AID923: qHTS Assay for Allosteric/Competitive Inhibitors of Caspase-1: Spectroscopic Profiling in AFC Spectral Region; compound fluorescence, AFC spectral region (405/520 nm); almost no hit is shown here; Potency, µM (titrated, usually from 57.5 µM), for inactives: top-dose fluorescence increase, most hits filed as activators; 1.1% of 75,000 active; AID 923, 2007; active means well fitted activation curve with a large enough effect; inconclusive means small, poorly fitted or top-dose-only effect;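 further: potency means the concentration at half of the fitted maximal effect; 0% is about no effect; scaled to a free AFC standard on each plate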
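Compound autofluorescence profiled at 405 nm ex/520 nm em during kinetic caspase 1 run (50 nM enzyme, 5 uM Ac-WEHD-AFC, HEPES pH 7.5, 10 mM DTT). Titration up to 57 uM; baseline from regression intercept, normalized to AFC standard curve.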
Resorufin autofl: compound fluoresces in the resorufin spectral region. AID 588. max dye-equivalent concentration, M. 0.04% of 59,000 active. Compound fluorescence, resorufin region 547/598 nm, buffer; stronger effect = higher value; active = above 10 nM dye equivalent; inconclusive = 1 to 10 nM; inactive = 1 nM or less; a few of its hits are not listed in these tables; further: highest value over a series up to 38 µM
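Tris 100 mM pH 8.0; compound added, 15 min RT; CCD imager read, ex 547 nm/em 598 nm; signal normalized to resorufin standard curve (six concentrations per plate) as dye-equivalent concentration.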
A488 autofl: compound autofluorescence in A488 spectral region | 0.1% of 59,000 active | compound autofluorescence, A488 spectral region, dye equivalency; stronger effect = higher value | AID 591 | max dye equivalency, M; active = above 10 nM dye equivalent; inconclusive = 1 to 10 nM; inactive = 1 nM or less; about half of its hits are not listed in these tables;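 further: highest value over a series up to 38 µM; compound alone in buffer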
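Readout is A488 dye-equivalent concentration, calibrated by a per-plate six-point Alexa 488 series. Compounds in 100 mM Tris buffer pH 8.0 were incubated 15 min at room temperature. Plates were imaged using 480 nm excitation/540 nm emission filters.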
A647 fluor: compound autofluorescence in A647 spectral region. Compound fluorescence, A647 channel (570/671 nm), Tris buffer. 59,000 tested, under 10 active. max dye-equivalent concentration, M; active means above 1 µM dye equivalent; inconclusive means 0.1 to 1 µM; inactive means 0.1 µM or less;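 further: values scaled relative to a standard on each plate; highest value over a series up to 38 µM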
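Compounds pinned into 100 mM Tris pH 8.0, 15 min at room temperature, then read with 570 nm excitation/671 nm emission filters. Fluorescence normalized to an on-plate six-point Alexa 647 standard curve, giving dye-equivalent concentration per compound concentration.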
TSHR agonist: TSH receptor (human) agonism. HEK293-CNG-TSHR cells (CNG channel as cAMP sensor), membrane potential dye, cAMP. Potency, µM (titrated, usually from 57.1 µM), inactives show at the top dose activation, usual class: activators. 0.48% of 73,000 active; active = well fitted activation curve of enough size with the parental cells flat; inconclusive = any curve in the parental cells; inactive = parental cells flat and receptor cells flat or falling; further: potency means the concentration at half of the fitted maximal effect; % of control where 0% means no effect; weak receptor curves with flat parental cells got no call and are not listed
Target sequence (P16473 whole entry, looked up): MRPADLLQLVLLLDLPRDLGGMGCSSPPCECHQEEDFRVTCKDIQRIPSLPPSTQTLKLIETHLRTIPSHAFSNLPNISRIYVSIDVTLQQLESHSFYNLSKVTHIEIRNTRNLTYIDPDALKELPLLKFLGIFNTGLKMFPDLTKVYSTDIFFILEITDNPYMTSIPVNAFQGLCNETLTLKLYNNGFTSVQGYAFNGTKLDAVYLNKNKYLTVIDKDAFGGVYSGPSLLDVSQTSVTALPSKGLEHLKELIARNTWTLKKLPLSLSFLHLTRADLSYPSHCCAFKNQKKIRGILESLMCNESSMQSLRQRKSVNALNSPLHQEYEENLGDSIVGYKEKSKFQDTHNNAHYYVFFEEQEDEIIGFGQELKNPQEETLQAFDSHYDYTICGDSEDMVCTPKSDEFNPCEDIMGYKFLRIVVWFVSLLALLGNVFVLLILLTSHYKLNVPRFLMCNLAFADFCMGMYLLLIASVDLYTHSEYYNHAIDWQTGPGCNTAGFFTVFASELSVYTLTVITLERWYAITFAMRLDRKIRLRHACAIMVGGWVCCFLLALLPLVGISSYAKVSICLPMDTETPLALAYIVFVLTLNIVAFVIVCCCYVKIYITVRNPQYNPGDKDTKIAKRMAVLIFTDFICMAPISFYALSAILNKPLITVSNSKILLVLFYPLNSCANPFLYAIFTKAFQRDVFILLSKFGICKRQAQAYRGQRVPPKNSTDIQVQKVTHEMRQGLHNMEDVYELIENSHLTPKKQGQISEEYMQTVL
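cAMP rise detected as CNG-channel membrane depolarization by fluorescent dye (emission 590 nm), 30 min after compound, following 60 min dye loading containing 100 uM RO 20-1724 at room temperature. Cells: TSHR/CNG HEK 293, with parental CNG HEK 293 as control.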
Active calls of the source: *; i = inactive; ? = inconclusive; / = not tested or not shown; & = joins results of further samples; [ ] = another dose, or the depositor's remark.

SMILES	AID923	Resorufin autofl	A488 autofl	A647 fluor	TSHR agonist
CC(=O)OC(C(=O)NC1CCCCC1)c1ccc(C#N)cc1 (stereo not drawn)	2.8%	i	i	1.3e-09	/
COc1cc(C(=O)Nc2c(-c3ccccn3)c(=O)c3ccccc3n2C)cc(OC)c1OC	-0.3%	i	i	7e-09	6%
Cn1c(=O)c2nc(-c3ccc(Cl)cc3Cl)oc2c2ccccc21	1.0%	/	/	/	0%
CCOc1cc2[nH]c(=O)n(CCCC(=O)NCc3ccco3)c(=O)c2cc1OCC	-0.2%	i	i	1e-09	2%
CO[C@@H]1/C=C\CC(=O)N2CCC[C@@H]2C(=O)OC[C@H](C)C(=O)OC[C@H]1C	1.7%[11.5 µM]	/	/	/	-4%[11.4 µM]
O=C(c1ccc2snnc2c1)N1CCOCC1	0.1%	/	/	/	11%
COc1ccc(NC(=O)CSC2CC(=O)N(c3ccc4c(c3)OCCO4)C2=O)cc1 (stereo not drawn)	-0.2%	i	i	1e-09	1%
COc1cccc(-n2cnc3cccc(N)c32)c1	1.7%	/	/	/	-2%
O=C(NCc1ccc(F)cc1)c1noc2c1CCCCC2	-1.1%	i	i	1e-09	4%
CCn1c(=O)c(C(=O)Nc2ccccc2S(N)(=O)=O)c(O)c2ccccc21	-0.8%	i	i	3.6e-08	5%
Cc1nnc(SCc2nnc(-c3ccc(Cl)cc3)o2)n1-c1ccccc1	-1.5%	i	i	2.1e-08	-2%[11.4 µM]
N#Cc1cccc(-c2cncnc2NCc2ccccc2)c1	1.4%	i	i	8.6e-09	?
CCSc1nc2c(c(=O)n1-c1ccc(F)cc1)SCC2	-1.6%	i	i	1e-09	15%[11.4 µM]
Cc1nonc1OCCn1nnnc1N	-0.3%	i	i	3.7e-09	-9%
C/C(N)=C(/C#N)C(=O)COc1ncnc2ccccc12	1.4%	i	i	3.2e-09	-1%
CCCCS(=O)CC(O)COc1ccc(C(C)(C)C)cc1 (stereo not drawn)	3.2%	/	/	/	3%[11.4 µM]
CCC(C)(C)n1nnnc1C(c1ccc(Cl)cc1)N1CCN(C)CC1 (stereo not drawn)	0.6%	i	i	7.6e-09	?
O=C(Cc1ccc(-c2ccccc2)cc1)NCCN1CCOCC1	-0.2%	i	i	2.4e-08	6%
O=c1[nH]c2cnccc2n1-c1ccccc1	/	i	i	4e-08	/
CCC[C@@H]1C[C@@]1(CCC)[C@@H](NC(=O)c1ccccc1)c1ccc(C(=O)OC)cc1	2.1%	/	/	/	?
CCCOCCOC(=O)C1=C(C)NC(=O)NC1c1cc(Cl)c(O)c(OC)c1 (stereo not drawn)	2.1%	/	/	/	0%
CCCC(=O)NCCc1cc2ccc(C)c(C)c2[nH]c1=O	-2.9%	/	/	/	-9%
CC(C)=C(NC(=O)c1ccco1)C(=O)NCCc1nc2ccccc2[nH]1	-0.2%	i	i	3.7e-08	-7%
Cc1c(C(=O)Nc2cccc(Cl)c2)oc2ccc(S(=O)(=O)N3CCC4(CC3)OCCO4)cc12	-0.6%	i	i	4.6e-08	14%
O=C(Nc1nc(-c2ccc3c(c2)OCO3)cs1)C1CC1	-1.6%	/	/	/	21%
O=C(O)c1ccc(NCc2cccnc2)cc1	-2.4%	i	i	1.8e-08	-6%
O=C(O)CCCN1C(=O)NC2NC(=O)NC21 (stereo not drawn)	-0.7%	i	i	2.4e-08	5%
O=C(Cn1cnc2c(cnn2-c2ccc(Cl)cc2)c1=O)NCCc1ccccc1	-0.3%	i	i	5.2e-09	13%
Cc1cc(C(=O)CSc2nnc(-c3cccs3)o2)c(C)n1-c1ccccc1	5.4%	i	i	3.1e-08	?
O=C(O)CCC(=O)c1ccc(Cl)cc1	3.1%[11.5 µM]	i	i	1.8e-09	-3%[11.4 µM]
Cc1cc(C)cc(N2CC34C=CC(O3)C(C(=O)OCC(=O)NCc3ccco3)C4C2=O)c1 (stereo not drawn)	-1.2%	i	i	1.8e-08	5%
COc1ccccc1-c1ccc(C(=O)O)o1	-1.0%	i	i	8.6e-09	4%[11.4 µM]
Cc1cc2c(s1)c1cnn(CC(=O)NCCc3ccccc3)c(=O)c1n2C	1.2%	i	i	2.5e-08	8%
CN(C(=O)c1ccncc1)c1nnc(-c2ccccn2)s1	0.3%	i	i	3e-09	16%
CCc1ccccc1NC(=O)CSc1nnc(-c2ccco2)n1N	0.0%	i	i	1e-08	16%
CCc1ccc(N2CCN(C(=O)c3ccc(OC)c(OC)c3)CC2)cc1	-0.5%	/	/	/	10%
O=S(=O)(Nc1ncn[nH]1)c1ccc2ccccc2c1	0.1%	i	i	2.1e-08	?
CCOC(=O)Cn1c(=NC(=O)CSC(C)=O)sc2cc(OC)ccc21	2.3%	i	i	1.9e-08	/
CC(C)(C)NS(=O)(=O)c1cccc2nsnc12	1.6%	i	i	8.7e-09	0%
Cc1cc(C)c(NC2=NCC(=O)N2C2CCCCC2)c(C)c1	2.0%	i	i	1e-09	?
CC(C)C(=O)NC(c1ccco1)c1ccc2cccnc2c1O (stereo not drawn)	3.8%	/	/	/	?
O=C(CN1C(=O)c2ccccc2S1(=O)=O)Nc1ccc(S(=O)(=O)N2CCCC2)cc1	-2.0%	i	i	1.2e-09	0%
CCN(CC)C[C@@H](O)CN1CCCCc2nc(C)c(C)cc21	-4.4%[11.5 µM]	/	/	/	-5%[11.4 µM]
Cc1ccc(C(C(=O)NC2CCCCC2)N(CC2CCCO2)C(=O)CNC(=O)c2ccco2)cc1 (stereo not drawn)	-4.4%	i	i	2.4e-09	19%
O=C(Nc1nnc(CC(=O)N2CCOCC2)s1)C1COc2ccccc2O1 (stereo not drawn)	1.5%	i	i	1e-09	2%
O=C(O)CNC(=O)C1COc2ccccc2O1 (stereo not drawn)	-0.7%	i	i	6.2e-09	4%
O=C(Oc1ccccc1)c1cccc2cccnc12	3.6%	i	i	1e-09	5%
CC(=O)N1CCc2cc(S(=O)(=O)NCCC(=O)Nc3ccc4c(c3)OCCO4)ccc21	-0.7%	i	i	5.9e-09	-3%
c1ccc(-n2nnnc2NCCc2c[nH]c3ccccc23)cc1	-0.8%	i	i	3.7e-09	-3%[11.4 µM]
Cc1ccc(C2CC(c3ccccc3OC(F)F)Nc3ncnn32)cc1 (stereo not drawn)	-1.1%	i	i	1.8e-08	?

Next part:
SMILES	AID923	Resorufin autofl	A488 autofl	A647 fluor	TSHR agonist
CC(=O)N1CCc2cc(NC(=O)c3ccc(C)cc3)ccc21	-0.9%	i	i	1e-09	2%
Cc1nc(CC(=O)O)c(-c2ccccc2)s1	1.4%	i	i	2.3e-08	9%
Cc1nc(SCC(=O)c2ccccc2)n[nH]1	-0.3%	i	i	1.9e-09	-2%
Cc1n[nH]c(C)c1CCc1nc2c3ccccc3nc(SCC(N)=O)n2n1	-0.5%	i	i	7.3e-09	-1%
Cc1nn(-c2ccccc2)c(C)c1NC(=O)c1cccs1	-1.0%	i	i	2.3e-09	2%
COc1ccccc1CNC(=O)CSc1nc(-c2ccccc2)cn1N	0.3%	i	i	3.4e-08	6%
COc1ccccc1-c1noc(-c2cc(OC)c(OC)c(OC)c2)n1	-0.7%	i	i	2.5e-08	3%
CCn1c(-c2cc(Br)cc(OC)c2O)nc2cc(S(=O)(=O)N(C)C)ccc21	0.4%	i	i	3.9e-08	4%
CC(=O)c1cccc(NC(=O)NCc2ccco2)c1	-1.4%	i	i	3.2e-09	0%
O=C1CNC(=O)/C1=C\N1CCCCC1	0.5%	i	i	2.1e-08	1%[11.4 µM]
O=C1C2C3c4ccccc4C(c4ccccc43)C2C(=O)N1Cc1ccco1 (stereo not drawn)	0.6%	/	/	/	13%[11.4 µM]
COCc1cc(=O)[nH]c(/N=C(\N)Nc2ccc(Oc3ccccc3)cc2)n1	0.7%	i	i	2.1e-08	1%
CC1CC(=O)C2=C(C1)Nc1ncnn1C2c1ccccc1 (stereo not drawn)	1.2%	i	i	2.7e-08	-1%
Cc1cc(C(=O)Nc2c(F)cc(F)cc2Br)c(C)o1	1.0%	i	i	1e-09	-3%[11.4 µM]
COC(=O)C1=C(C)NC(=O)CC1c1ccc(C(=O)OC)cc1 (stereo not drawn)	2.1%	/	/	/	9%
CC(NC(=O)c1ccco1)C(c1cccs1)N1CCN(c2ccccc2)CC1 (stereo not drawn)	-4.2%	/	/	/	-4%
COc1ccc(C(=O)N2CCC3(CC2)CN(C(=O)NC(C)C)C3)cc1	3.5%	i	i	2.7e-09	?
Clc1ccc(-c2noc(CN3CCN(c4ccccc4)CC3)n2)cc1	0.8%	i	i	1e-09	13%
COc1ccccc1-c1nnc2sc(C3CCCCC3)nn12	/	i	i	1e-09	/
CCOC(=O)N1CCC(NC(=O)c2cnn3c(C(F)(F)F)cc(-c4cccc(OC)c4)nc23)CC1	1.6%	i	i	1e-09	-15%
O=C(NCCN1CCOCC1)c1cc(-c2ccc(F)cc2)on1	0.5%	i	i	1.8e-08	-2%
CCOC(=O)C1=C(N)OC2=C(C(=O)CC(C)(C)C2)C1C1CCCCC1 (stereo not drawn)	-0.7%	/	/	/	?
CC(=O)Nc1ccc(S(=O)(=O)N(C)c2ccccc2)cc1	-0.3%	/	/	/	0.79µM*
CCN(CC)CCn1c(NCc2ccc(OC)cc2)nc2ccccc21	1.0%	i	i	7.1e-09	22%
O=C(NCCNC(=O)c1ccc(Br)o1)c1ccc(Br)o1	2.7%	/	/	/	-2%
COC(=O)c1oc2ccc(Br)cc2c1NC(C)=O	0.2%	/	/	/	18%
COC(=O)C1=C(C)N(Cc2ccccc2)[C@]23O[C@](C(=O)OC)(C(=O)N2C1c1ccccc1)C1C(=O)N(c2ccccc2)C(=O)C13 (stereo partly drawn)	-2.2%&-1.4%[11.5 µM]	/	/	/	2%&2%[11.4 µM]
COc1cc(C2NC(=O)NC(O)(C(F)(F)F)C2C(=O)c2cccs2)ccc1O (stereo not drawn)	2.6%	i	i	3.3e-08	-9%
CCn1cc(C(=O)NCCCN2CCC(C)CC2)c(=O)c2cc(S(=O)(=O)N3CCCC3)ccc21	-1.0%	i	i	1.1e-08	0%
Cc1ccc(C)c(S(=O)(=O)N2CCN(CC(=O)NC(=O)NCc3ccccc3)CC2)c1	2.2%	i	i	1e-09	7%

Among those listed so far, these contain a cyano group.
SMILES	AID923	Resorufin autofl	A488 autofl	A647 fluor	TSHR agonist
CC(=O)OC(C(=O)NC1CCCCC1)c1ccc(C#N)cc1 (stereo not drawn)	2.8%	i	i	1.3e-09	/
N#Cc1cccc(-c2cncnc2NCc2ccccc2)c1	1.4%	i	i	8.6e-09	?
C/C(N)=C(/C#N)C(=O)COc1ncnc2ccccc12	1.4%	i	i	3.2e-09	-1%

(next part)
SMILES	AID923	Resorufin autofl	A488 autofl	A647 fluor	TSHR agonist
O=C(c1ccco1)N1CCN(c2ncnc3scc(-c4cccs4)c23)CC1	-0.8%	i	i	7.5e-09	12%
O=C1c2ccccc2C(Nc2cccnc2)N1Cc1ccc2c(c1)OCO2 (stereo not drawn)	-0.5%	/	/	/	-14%
Cc1ccc(C(=O)NCCNS(=O)(=O)c2ccccc2)cc1	0.9%	/	/	/	16%
CC(C)(C)OC(=O)N1CCCC1C(=O)N1CCCC1C(=O)N1CCCC1C(=O)O (stereo not drawn)	2.1%	i	i	1.5e-09	-2%[11.4 µM]
COCCn1c(CNc2ccc(F)cc2)nnc1SCC(=O)Nc1ccc(OC)cc1OC	-0.2%	i	i	1e-09	4%

A portion of the library. The share of hits here may be higher or lower than overall.
